Six1-Eya2 blk: qHTS Assay for Inhibitors of the Six1/Eya2 Interaction. Homeobox protein SIX1 (Homo sapiens) + Protein phosphatase EYA2 (Homo sapiens), …. AlphaScreen GST-Six1/His-Eya2 binding, biochemical; active compounds read low; control for the full effect not named in the record. activity change, % (concentration not given with the values). hit rate 0.56% among 360,000. AID 651725, 2012; in the data active = activity change below about -65%; inconclusive = about -30% to -65%; inactive = above about -30%; also: % is scaled to controls: 0 for no effect and ±100 for the full control effect
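AlphaScreen with GST-Six1 and His-Eya2 (5X mix: 250 nM and 500 nM), glutathione donor and nickel acceptor beads; buffer 50 mM Tris pH 8.0, 300 mM NaCl, 1 mM TCEP; 1 h at 37 C in the dark.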
D2 PAM: Beta-Arrestin HTS for Positive Allosteric Modulators of the Human D2 Dopamine Receptor: Potentiators; potentiation, % (concentration not given with the values); hit rate 0.23% among 360,000; DiscoveRx D2 beta-arrestin cells, luminescence, 90 min; 100% = 57 uM dopamine signal; AID 624464, 2012; D(2) dopamine receptor (Homo sapiens), P14416; active = potentiation of 50% or more; inconclusive = 30% to 50%; inactive = 30% or less;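 also: compound concentration not given in the record; tested on top of an EC20 dose of dopamine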
Target sequence (P14416 whole entry, looked up): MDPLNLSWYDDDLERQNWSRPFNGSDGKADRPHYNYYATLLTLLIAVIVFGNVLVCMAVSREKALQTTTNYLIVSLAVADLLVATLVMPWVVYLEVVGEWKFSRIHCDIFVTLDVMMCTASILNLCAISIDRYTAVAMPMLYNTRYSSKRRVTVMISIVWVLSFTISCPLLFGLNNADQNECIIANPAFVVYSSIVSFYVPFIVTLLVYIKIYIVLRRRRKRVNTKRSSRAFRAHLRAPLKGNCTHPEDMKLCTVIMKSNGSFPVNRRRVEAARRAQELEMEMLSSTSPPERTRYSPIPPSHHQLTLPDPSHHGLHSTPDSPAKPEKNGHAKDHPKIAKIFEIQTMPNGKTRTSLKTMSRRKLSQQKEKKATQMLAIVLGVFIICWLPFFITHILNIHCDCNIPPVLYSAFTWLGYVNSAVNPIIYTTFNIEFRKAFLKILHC
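D2 cells co-treated with compound plus 50 nM dopamine (EC20) for 90 min at 37 deg C to detect potentiation. Beta-arrestin recruitment was read as enzyme-fragment luminescence after 1 h at ambient temperature. Full response was set by 57 uM dopamine.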
gsp ag: qHTS for Agonist of gsp, the Etiologic Mutation Responsible for Fibrous Dysplasia/McCune-Albright Syndrome: qHTS; gsp mutant cells, cAMP HTRF, 30 min; control for the full effect not named in the record; Potency, µM (series often up to 76.9 µM), for the others: at the highest dose activation (cAMP increase), hits mostly activators; AID 624287, 2012; hit rate 0.13% among 340,000; active = well fitted activation curve with a large enough effect; inconclusive = small, poorly fitted or top-dose-only effect, or another doubt; inactive = no such curve, though single readings can be large or run the other way; cell line not stated here;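 also: phosphodiesterase inhibitor Ro 20-1724 added with compounds to block cAMP breakdown; potency is read from the fitted curve at half-maximal effect; nearly all actives have a fitted effect of over 60% in size; about a fifth of the inactives were tested at one dose only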
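Cells in DMEM/10% FBS with G418 were pretreated with compounds in DMSO plus […] (300 uM stock) for 30 min at 37C. cAMP was measured by HTRF (cAMP-d2 plus anti-cAMP antibody-K) after 30 min at room temperature.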
D2 ag: Beta-Arrestin HTS for Positive Allosteric Modulators of the Human D2 Dopamine Receptor: Agonists | D(2) dopamine receptor (Homo sapiens), P14416 | DiscoveRx PathHunter D2 beta-arrestin, luminescence, 90 min; 100% = 57 uM dopamine signal | activation, % (test concentration not listed) | hit rate 0.084% among 360,000; in the data active = activation above about 40%; inconclusive = about 15% to 40%; inactive = below about 15%; also: compound concentration not given in the record; the text of the record calls up to 30% inactive
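DiscoveRx PathHunter D2 beta-arrestin cells (2,100/well) attached overnight, then compound-stimulated 90 min at 37 C in HBSS/10 mM HEPES/0.1% Tween-20 buffer; beta-galactosidase complementation read by luminescence after 1 h at ambient temperature. Dopamine 57 uM final (EC100) as control.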
gsp antagonist: qHTS for Antagonists of gsp, the Etiologic Mutation Responsible for Fibrous Dysplasia/McCune-Albright Syndrome: qHTS | AID 624288, 2012 | Potency, µM (top dose mostly 76.9 µM), for the others: at the top dose activity change, negative = inhibition, usual class: inhibitors | hit rate 0.4% among 340,000 | gsp-mutant cells, cAMP HTRF, 30 min; control for the full effect not named in the record; active = falling curve of any shape with a large fitted effect; inconclusive = falling curve, mostly with a smaller effect; inactive = flat or rising curve; cell line not stated here;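 also: intracellular cAMP measured with PDE inhibitor Ro 20-1724 present during compound exposure; potency is read from the fitted curve at half-maximal effect; % is scaled to controls: 0 for no effect and ±100 for the full control effect; nearly all actives have a fitted effect of over 65% in size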
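G418-selected cells were plated in DMEM/10% FBS for 16-24 h at 37C, then treated with compounds plus the PDE inhibitor […] (300 uM solution added) for 30 min at 37C. Intracellular cAMP was measured by HTRF after 30 min lysis at room temperature.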
CtBP-E1A inh: qHTS Assay for Inhibitors of the CtBP/E1A Interaction; CtBP / adenovirus E1A interaction (AlphaScreen); AlphaScreen GST-E1A/His-CtBP binding, 1536-well; active compounds read low; control for the full effect not named in the record; activity change, % (no concentration beside the values); hit rate 0.49% among 340,000; in the data active means activity change below about -65%; inconclusive means about -30% to -65%; inactive means above about -30%; also: % is scaled to controls: 0 for no effect and ±100 for the full control effect
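Protein mix (5X: 125 nM each GST-E1A, His-CtBP) was incubated with pinned compound 2 h at 37 deg C in dark, in 50 mM Tris pH 8.0 buffer with 300 mM NaCl. Glutathione donor and nickel acceptor beads followed; AlphaScreen signal read after 1 h.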
* marks the source's active call; other numbers are inactive results; ? = inconclusive; nt = no result given; [ ] = another dose, or the depositor's remark.

CtBP-E1A inh	gsp ag	smiles	D2 ag	Six1-Eya2 blk	D2 PAM	gsp antagonist
0	?	CCOC(=O)c1cnc2c(c(C)nn2CC)c1NCCN1CCOCC1	2.6	17	-1	0%
7	-13%[15.4 µM]	CSc1nc2n(n1)C(C)C1=C(CCCC1=O)N2 (stereo not drawn)	-1.3	4	-7	8%
-2	-102%[inhibitor]	COc1ccc(NC(=O)N(Cc2cc3cc(C)ccc3[nH]c2=O)CC2CCCO2)cc1 (stereo not drawn)	0.9	-1	-4	-7%
-16	-17%	C[C@]12CCC3C(CC[C@H]4CC(O)CC[C@]34C)C1CC/C2=N/O (stereo partly drawn)	0.3	-11	0	-6%
2	-37%[inhibitor]	CCOC(=O)C(Cc1ccnc2ccccc12)=NO	-1.0	10	-3	-15%
2	-26%	O=C(CN1C(=O)CCSc2ccccc21)Nc1ccc(F)cc1	-2.0	2	6	-2%
-1	-8%	CCN1C(=O)c2cccc3c(S(=O)(=O)N(C)C)ccc1c23	-2.4	8	-6	nt
1	-17%	COCCCNc1nc2c(-c3cccc(C(F)(F)F)c3)nnn2c2ccccc12	-0.8	-2	-11	8%
-4	-16%	COc1cccc(-c2nnn(CC(=O)Nc3cc(OC)c(NC(=O)c4ccco4)cc3OC)n2)c1	5.0	-10	4	-10%
-6	1%	CN=C(c1ccco1)n1c(=S)nc(-c2ccco2)n(C)c1=S	-1.4	-3	-18	7%
nt	20%	Cc1cccc(NC(=O)CN2C(=O)S/C(=C\c3ccccn3)C2=O)c1	-0.5	18	0	7%
nt	-19%	CN1C(=O)c2ccc(NC(=O)c3cccc(N4C(=O)CCC4=O)c3)cc2C1=O	-7.6	-13	-7	-16%
-25	-38%[inhibitor]	O=C(O)C[C@H]1c2ccc(C(F)(F)F)cc2S(=O)(=O)N1C1CCCCC1	2.0	10	-2	5%
2	15%	Cc1ccc(NC(=O)Cn2c(=O)cnc3ccccc32)cc1S(=O)(=O)N1CCCCC1	0.8	-3	1	-24%
7	?	Cc1ccncc1CNC(=O)c1ccccc1	-1.0	3	-6	0%
0	nt	CCOC(=O)c1ccc(NC(=O)c2nc[nH]c2C(=O)N[C@@H](CC(C)C)C(=O)OC(C)(C)C)cc1	-2.6	-1	-47	-4%
-8	?	CCCCNc1c(-c2ccc(SC(C)CC)cc2)nc2cnccn12 (stereo not drawn)	?	31	2	7%
4	-13%	CCCCn1nnnc1SCC(=O)N1CCCC1	?	6	8	13%
-1	-3%	Cc1cc(C)nc(NC2=NCC(=O)N2c2ccc3c(c2)OCCO3)n1	-2.2	-6	-7	6%
3	9%[15.4 µM]	CC1CCN(C(=O)COC(=O)c2cccc(NS(=O)(=O)c3ccccc3)c2)CC1	-2.5	-10	-9	11%
8	-17%	CCCn1c(=O)c2ccccc2n2c(SCCOc3ccc(Cl)cc3)nnc12	0.2	5	-2	-13%
0	-10%[15.4 µM]	COc1cc(CC(=O)OCn2nnc3ccccc3c2=O)cc(OC)c1OC	4.6	-12	3	2%
4	3%	CCOCCCNC(=O)C(NC(=O)CNC(C)=O)c1ccc(Cl)cc1 (stereo not drawn)	0.5	8	-5	8%
2	8%	OC(COCC1COc2ccccc2O1)CN1CCN(c2ccc(F)cc2)CC1 (stereo not drawn)	1.2	1	-40	0%
4	nt	COC(=O)[C@]1(Cc2ccccc2)N[C@H](CN(C)C(=O)c2ccc(C)cc2)[C@@H]2C(=O)N(C)C(=O)[C@@H]21	0.7	12	1	1%
1	-32%[inhibitor][15.4 µM]	CCOc1ccc(-c2cc(C(=O)OC)nc3c2c(=O)n(C)c(=O)n3C)cc1	-2.6	3	-8	5%
-14	-1%	c1cncc(CSc2nnc3ccc(-c4ccncc4)nn23)c1	-3.0	-8	-9	17%
-1	32%[15.4 µM]	O=C(Nc1ccccc1)Nc1cc([N+](=O)[O-])ccc1F	-0.6	-1	-19	-31%
-28	nt	O=C(Nc1ccc2c(c1)OCCO2)C(CCc1ccccc1)N1CCC(Cc2ccccc2)CC1 (stereo not drawn)	-4.0	-6	-14	nt
-1	2%	CC(C)NC(=O)c1ccc(CNC(=O)OCC(F)(F)F)cc1	-2.6	-3	-11	-9%
-17	nt	Cc1ccc(CNC(=O)c2ccc(N3CCC4(CC3)CC(c3ccccc3)=NO4)c([N+](=O)[O-])c2)cc1	-3.0	-23	-28	2%
-10	4%	CCOc1ccc2nc(NC(=O)c3cnc(C)cn3)sc2c1	-1.9	-6	-4	3%
1	-62%[inhibitor]	CC1CCCC(C)N1C(=O)COC(=O)c1ccccc1C(=O)c1ccccc1 (stereo not drawn)	0.4	12	-6	nt
2	12%	CCOC(=O)c1ccc(NC(=O)N(CC)CC)cc1	-1.2	1	9	-2%
-11	?	COc1cc(CCC(=O)OCC(=O)NCCc2ccc(S(N)(=O)=O)cc2)cc(OC)c1OC	-4.7	7	-7	7%
nt	-19%	C/C=C\C=C/C(=O)Nc1cccc(C2=NOC3(C2)C[C@@H](C(N)=O)N(C(=O)c2ccc(Cl)cc2)C3)c1 (stereo partly drawn)	1.7	-8	3	1%
0	0%[15.4 µM]	COCCn1c(COc2cccc(OC)c2)nnc1SCC(=O)NC1CCCC1	-3.1	-4	-4	-14%
-4	-2%	Cc1ccc(NC(=O)c2cc(-c3ccc(F)cc3)on2)cc1C	-2.2	4	-13	7%
9	-10%	COc1ccc(C(C(=O)NC(C)(C)C)N(C(=O)CNC(=O)c2cccs2)c2ccc(C(C)C)cc2)cc1OC (stereo not drawn)	-1.0	-6	-24	-14%
-9	18%	Cn1c(=O)[nH]c(=O)c2c1nc(NCCCn1ccnc1)n2Cc1ccccc1	-2.5	2	-5	7%
-1	-1%	COc1cc(-c2nc3ccccn3c2/N=C/c2cccc(F)c2)ccc1O	9.8	-9	?	?
1	1%	CCCCn1c(SCC(=O)NCCOC)nc2ccc(N3CCOCC3)cc2c1=O	6.8	1	20	-14%
-16	nt	O=C(CC[C@H]1O[C@@H](n2ccc(=O)[nH]c2=O)[C@H](O)[C@@H]1O)N1CCN(c2ccccn2)CC1	-4.8	14	3	nt
0	?	CN(C)c1nc(NCc2ccccc2)nc(SCC(=O)Nc2ccccc2Cl)n1	2.0	-8	-14	1%
3	nt	CCc1nc2ccc(C(=O)Nc3cccc(OCC(=O)N(C)C)c3)cn2c1N(CC)CCN(C)C	2.8	2	2	nt
10	6%	COc1ccc2[nH]c(=O)c(CN(C(=O)C3CCCO3)c3ccc(C)cc3)cc2c1 (stereo not drawn)	-4.0	4	-11	-6%
6	-4%	Cc1ccccc1N1C(=O)c2cccc3cccc(c23)C1=O	-3.8	-3	2	25%
-24	20%	Cc1c(C)c2ccc(OCC(=O)N3CCN(C(=O)C4COc5ccccc5O4)CC3)cc2oc1=O (stereo not drawn)	5.3	-4	0	-16%
4	-35%[inhibitor]	CC(=O)c1ccc([N+](=O)[O-])c(CS(=O)(=O)c2ccc(Cl)cc2)c1	13	6	-2	6%
-25	-46%[inhibitor]	Cc1cccc(NC(=O)CSc2nccn2Cc2ccco2)c1C	-0.6	-7	-5	4%

More structures.
CtBP-E1A inh	gsp ag	smiles	D2 ag	Six1-Eya2 blk	D2 PAM	gsp antagonist
-3	1%	Clc1cccc2sc(N3CCCC3)nc12	-1.8	11	8	-20%
-3	-14%[15.4 µM]	Cc1[nH]c2ccccc2c1/C=N/NC(=O)CNC(=O)c1ccc2c(c1)OCO2	0.2	-1	-11	6%
4	-2%[15.4 µM]	O=S(=O)(Nc1ccc(Cl)cn1)c1cnc(Cl)c(Br)c1	-2.8	4	-7	-17%
-2	20%[15.4 µM]	Cc1cc(Oc2ncccc2[N+](=O)[O-])c2cc(Cl)ccc2n1	0.0	-3	-11	5%
19	17%	Cc1ccc(Sc2cnccc2C#N)cc1	-1.0	-1	-6	0%
-2	7%[15.4 µM]	COc1ccccc1NC(=S)N(CCN1CCOCC1)Cc1ccccc1F	-4.2	2	5	10%
-13	-3%	O[C@@H]1CN(CC2CCCCC2)[C@@H](c2ccc(Cl)cc2)C[C@H]1n1cc(C2CC2)nn1	-11	3	-2	nt

An excerpt taken from the entries so far, for reference:
CtBP-E1A inh	gsp ag	smiles	D2 ag	Six1-Eya2 blk	D2 PAM	gsp antagonist
0	?	CCOC(=O)c1cnc2c(c(C)nn2CC)c1NCCN1CCOCC1	2.6	17	-1	0%
7	-13%[15.4 µM]	CSc1nc2n(n1)C(C)C1=C(CCCC1=O)N2 (stereo not drawn)	-1.3	4	-7	8%
-2	-102%[inhibitor]	COc1ccc(NC(=O)N(Cc2cc3cc(C)ccc3[nH]c2=O)CC2CCCO2)cc1 (stereo not drawn)	0.9	-1	-4	-7%
-16	-17%	C[C@]12CCC3C(CC[C@H]4CC(O)CC[C@]34C)C1CC/C2=N/O (stereo partly drawn)	0.3	-11	0	-6%
2	-37%[inhibitor]	CCOC(=O)C(Cc1ccnc2ccccc12)=NO	-1.0	10	-3	-15%
2	-26%	O=C(CN1C(=O)CCSc2ccccc21)Nc1ccc(F)cc1	-2.0	2	6	-2%
-1	-8%	CCN1C(=O)c2cccc3c(S(=O)(=O)N(C)C)ccc1c23	-2.4	8	-6	nt
1	-17%	COCCCNc1nc2c(-c3cccc(C(F)(F)F)c3)nnn2c2ccccc12	-0.8	-2	-11	8%
-4	-16%	COc1cccc(-c2nnn(CC(=O)Nc3cc(OC)c(NC(=O)c4ccco4)cc3OC)n2)c1	5.0	-10	4	-10%
-6	1%	CN=C(c1ccco1)n1c(=S)nc(-c2ccco2)n(C)c1=S	-1.4	-3	-18	7%

From PubChem BioAssay

Rows were taken by chance, and some 1.4% of all compounds hit somewhere here.
